VACV E9 pol inh: inhibitors of vaccinia virus processive DNA synthesis (E9 polymerase); AID 493162; normalized absorbance, % (no concentration beside the values); actives 0.94% (n = 46,000); in vitro processive DNA synthesis, absorbance read-out; active compounds read low; some inactives read as strong as hits;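 active = replicate mean up to 90% and picked by the depositor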;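 also: 100% = median of the test wells of a plate; 100 nL library stock went into each well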
Starred values were filed as active, the others as inactive. Some of the compounds tested; rates above refer to the full screens.

SMILES,VACV E9 pol inh
COc1cc2c(cc1OC)C(C(=O)NCCN(C)C)C(c1cccs1)N(C)C2=O (centres undefined),92.6
Cc1ccc(Cn2c(/N=C/c3ccc(N(C)C)cc3)nc3ccccc32)cc1,99.3
CCOC(=O)c1sc2nc(N3CCCCC3)c3c(c2c1N)CC(C)(C)OC3,100.2
CSc1c(CC(=O)Nc2ccccc2)n(Cc2ccccc2)c2ccccc12,100.7
O=C1CC(Sc2ccc3ccccc3c2)C2COC1O2 (centres undefined),36.1*
CCN(CC)c1ccc(N=c2ccc3ccccc3n2C)cc1,89.2
CC1(C)CC(=O)/C(=C/c2ccco2)CO1,100.1
Nc1ccc(CCc2nc3ccccc3[nH]2)cc1,100.3
Cc1ccc(S(=O)(=O)NC(=O)Oc2cccc3cccnc23)cc1,100.2
CC1(C)CC(=O)C2=C(C1)NC1=C(C(=O)CC(C)(C)C1)C2c1cccc(F)c1,93.5
CCC1=Nc2cc(C(=O)NCC(OC)OC)ccc2Sc2ccccc21,100.5
CC(=O)Oc1c(Cl)cc(C(=O)O)cc1Cl,88.0
N#CC(C(=O)Nc1ccc(Cl)cc1)C(=O)c1cccs1 (centres undefined),75.4
CCCCS(=O)CSc1nc(-c2cccs2)cc(-c2ccccc2)c1C#N (centres undefined),100.0
O=c1c2ccccc2[nH]c(=S)n1CCc1ccccc1,84.8
CC(C)C1NC(=O)N(c2ccccc2)C1=O (centres undefined),99.2
C=CCN(C(=O)CSc1cc(=O)n(C)c2ccccc12)c1ccccc1,103.3
CCOc1ccc(CCNC(=O)c2cn3c4c(ccc(Cl)c4c2=O)OC(C)C3)cc1 (centres undefined),92.3
COC(=O)COc1ccc2c3c(c(=O)oc2c1)CCC3,98.2
NC(=O)CCc1cn(-c2ccccc2)nc1-c1ccccc1,104.4
O=C(O)CNC(=S)N(Cc1ccccc1)Cc1cccs1,88.5
CC[C@@]1(O)C(=O)OCc2c1cc1n(c2=O)Cc2cc3ccccc3nc2-1,99.9
O=c1c(N2CCOCC2)nnc2sc3ccccc3n12,85.8
CC1=NOC(=O)/C1=C/c1ccc(N(C)C)cc1,99.9
O=C(Cc1cccs1)N1CCc2ccccc2C1,97.3
O=C(OC(Cn1cncn1)c1ccc(Cl)cc1)c1ccccc1 (centres undefined),77.5
CCc1ccc(C2c3c(oc4ccccc4c3=O)C(=O)N2c2ccccn2)cc1 (centres undefined),107.2
COc1ccc(CC(=O)OCC(=O)Nc2ccc(Br)cc2)cc1,99.6
O=C(SC1=NCCc2ccccc21)c1ccccc1,96.7
CCOc1ccccc1C(=O)OCC(=O)Nc1cccc(Cl)c1,97.8
O=C(NC(c1ccccc1)c1ccccc1)c1ccccc1Cl,101.5
COc1ccc(NC(=O)C(NC(=O)C2CCCCC2)C(C)C)cc1 (centres undefined),86.3
O=S(=O)(NCc1cccc2ccccc12)c1ccccc1,97.3
CC(NS(=O)(=O)c1ccc(Oc2cccc(Cl)c2C#N)cc1)C(C)(C)C (centres undefined),98.4
CCN(CC)CCNC(=O)c1cc(S(C)(=O)=O)ccc1OC,99.1
O=c1[nH]nc(-c2cc(C(F)(F)F)cc(C(F)(F)F)c2)c2ccccc12,98.6
CN(C)CCNc1nc2ccccc2[nH]1,83.7
O=C(CSC1=NCCS1)Nc1nccs1,100.2
COc1ccc(Nc2oc(-c3ccccc3Cl)nc2C#N)cc1,102.7
CCOc1ccc(NC(=O)NCCN2C(C)CCCC2C)cc1 (centres undefined),101.9
CCN1CCN(c2cc(C)c3cc(NC(=O)COc4ccc(Cl)cc4)ccc3n2)CC1,100.1
O=C(Nc1nccs1)c1cn(-c2ccccc2)nc1-c1ccccc1,100.1
O=c1cc(CCl)c2c(ccc3ccccc32)o1,102.6
Cc1ccc(S(=O)(=O)N[C@@H](Cc2ccccc2)C(=O)CCl)cc1,99.3
CC(CO)(CO)NS(=O)(=O)c1ccccc1,99.5
CC(C)Nc1ccc(Nc2ccccc2)cc1,96.5
Cc1ccc(C)c(OCCCC(C)(C)C(=O)O)c1,93.2
CN1C2CCC1CC(NC(=O)CS(=O)(=O)c1ccc(F)cc1F)C2 (centres undefined),98.4
CCC1=C(C(=O)OC)C(c2cc(OC)c(OC)cc2OC)n2ncnc2N1 (centres undefined),99.3
CCCCC[C@H](O)/C=C/[C@H]1C=CC(=O)[C@@H]1CCCCCCC(=O)O,99.3
CSc1nc(-c2cccnc2)nc(-c2ccc(OC(F)(F)F)cc2)c1C#N,92.2
O=C(Nc1cccc(Cl)c1)Nc1ccccc1N1CCCCC1,103.4
c1ccc(-n2ncc3c(N4CCc5ccccc54)ncnc32)cc1,81.6
CCN(CC)CC(=O)OCC1C(C)C=C(C)CC1C (centres undefined),99.9
Nc1ccc(CC(CCC(=O)O)C(=O)O)cc1 (centres undefined),99.9
Cc1cc(N)n(-c2ncnc3sc4c(c23)CCC4)n1,100.1
CCC(=O)Oc1c(S(=O)(=O)c2ccccc2)c(C)nn1C(C)(C)C,95.7
Cc1c(C(=O)N2CCN(c3ccc(Cl)cc3)CC2)oc2c1-c1[nH]ncc1CC2,109.9
CC(=O)NC(Cc1ccc(F)cc1)C(=O)OCc1ccccc1 (centres undefined),99.6
CCOC(=O)N1CCN(C(=O)CSc2c(-c3ccccc3)[nH]c3ccccc23)CC1,92.2

(continued)
SMILES,VACV E9 pol inh
O=C(COc1ccc(NS(=O)(=O)c2cccc3cccc(Cl)c23)cc1)N1CCOCC1,100.7
CCN1CCN(Cc2cccc3cccnc23)CC1,94.7
NC(=O)Nc1ccc2[nH]ncc2c1,99.8
O=C(O)CCNc1cc(Cl)ccc1Oc1ccc(Cl)cc1,94.9
O=C1NC(=O)C(CC2CCCN3CCCCC23)C(=O)N1 (centres undefined),100.2
Cc1cccc(-n2nnnc2-c2ccc3ccccc3n2)c1,101.0
CC(C)(C)Nc1nc(Cl)nc(N(C#N)CN2C(=O)c3ccccc3S2(=O)=O)n1,100.2
CN(C)c1ccc(NC(=O)c2ccc(Cl)cc2)cc1,129.8
O=C(C1CCCN1S(=O)(=O)c1cccc2nsnc12)N1CCCCCC1 (centres undefined),100.7
CC12CCC(C(=O)N3CCCCC3)(CC1=O)C2(C)C (centres undefined),100.5
CCCCCc1cc(O)c2c(c1)OC(C)(C)C1CC=C(C)CC21 (centres undefined),99.2
CCC(=O)O[C@H]1CCC2C3CCC4=CC(=O)CC[C@]4(C)C3CC[C@@]21C (some centres undefined),99.9
CN1C(=O)CCC1(O)c1ccccc1 (centres undefined),112.9
CC(O)CCc1sc2ccccc2[n+]1C (centres undefined),101.0
CC(C)N(Cc1ccccc1)S(=O)(=O)c1ccc2ccccc2c1,104.1
Cc1ccc2c(CN(C)Cc3ccco3)cc(=O)oc2c1,103.2
CCN1C(=O)C(=Cc2cn(Cc3c(F)cccc3Cl)c3ccccc23)C(=O)N(CC)C1=S,100.1
COc1ccc(Nc2c(-c3ccccc3)nc3cnccn23)cc1,94.8
Cc1ccc(-c2sc(-c3ccccc3)nc2CC(=O)O)cc1,90.7
CCN(CC)c1nc2c(S(=O)(=O)c3ccccc3)nnn2c2ccccc12,102.8
CC(C)(C)c1csc(NC(=O)c2ccc(C#N)cc2)n1,105.6
O=C1NC(=O)/C(=C\c2ccc(N3CCCC3)c(F)c2)N1,99.6
S=c1n(CN2CCCCC2)cnn1CN1CCCCC1,100.0
N#CCC(=O)Nc1ccc(C(=O)OCc2ccccc2Cl)cc1,102.9
CCn1c(C(=O)N2CCc3ccccc3C2)cc2sccc21,99.3
CCC(C)NC(=O)Cn1c(=O)n(CC(=O)NCc2ccc(C)cc2)c(=O)c2sccc21 (centres undefined),100.6
CCCNC(=O)c1oc(=O)c2ccccc2c1-c1ccccc1,101.4
CCCCCCCCCCCCC(O)C(=O)O (centres undefined),99.3
N/N=C(/Cn1nnc(N2CCCCC2)n1)c1ccc(Cl)cc1,107.7
Cc1cc2c(ncn2Cc2ccccc2)c(N)c1C,84.3
COc1cc2c(cc1OC)C(COc1ccccc1OC)N(C(=O)/C=C/c1ccccc1)CC2 (centres undefined),99.1
CN(C)c1ccc(C(=O)N=c2sc3cc(Cl)ccc3n2C)cc1,101.3
COc1ccc(CCNc2cc(C)nc3c(-c4ccc(OC)c(OC)c4)c(C)nn23)c(OC)c1,91.3
COc1ccc(-c2cc(-c3ccco3)c(C#N)c(N)n2)cc1,95.0
COc1cccc(OC)c1C(=O)c1cc[n+](C)cc1,109.9
Cc1ccc2c(c1)-c1onc(C(=O)NC3CCCCC3)c1CO2,97.4
COc1cccc2c(=O)n(CC(N)=O)ccc12,92.3
CC(C)C(=O)OCC(=O)Nc1ccc(I)cc1,107.0
O=c1ccc2cc(S(=O)(=O)NCCN3CCN(c4cccc(Cl)c4)CC3)ccc2[nH]1,96.4
CCOC(=O)C1C(C)=C(c2ccc(Cl)cc2)OC(N)=C1C#N (centres undefined),98.9
Cc1ccc(CNc2ccc(N3CCOCC3)c(Cl)c2)s1,100.7
CCCSc1nnc(NC(=O)Cc2ccc(OC)cc2)s1,97.1
O=S(=O)(/C=C/c1ccccc1)N1CCN(c2ccccn2)CC1,97.1
CCOC(=O)c1cnc2c(Cl)cccc2c1Cl,94.2
CC1CCCC(NC(=O)Nc2cccs2)C1C (centres undefined),99.3
O=C(c1ccccc1)N1CCC2(CC1)Cc1ccccc1C2=O,97.4
CN1C(=O)C(=Cc2cn(CC(=O)N3CCCC3)c3ccccc23)C(=O)N(C)C1=O,99.6
CC(C)(C)C(=O)NC(=S)Nc1ccc2c(c1)COC2=O,99.2
CC(=O)N[C@@H]1[C@@H](O)[C@H](O)[C@@H](CO)O[C@H]1O,99.5
CC1CCN(C(=O)c2ccc(CSc3nc4ccncc4[nH]3)cc2)CC1,100.4
Cn1c(O)c(C=NCc2ccc3c(c2)OCO3)c(=O)n(C)c1=S,97.5
Cc1c(C(=O)O)sc2ncn(C)c(=O)c12,97.8
CCOc1ccc(C(=O)N2CC(C)CC(C)C2)cc1 (centres undefined),101.3
CCC(Sc1ccccc1)C(=O)Nc1nnc(-c2ccc(OC)cc2OC)s1 (centres undefined),101.1
NC(Cn1ccc(=O)c(O)c1)C(=O)O (centres undefined),98.7
Nc1cc(C(F)(F)F)ccc1C(F)(F)F,101.7
Nc1cc(C(=O)O)ccc1Sc1ccccc1C(=O)O,99.9
CN1/C(=C\C(=O)COC(=O)c2ccccc2)C(C)(C)c2ccccc21,102.4
COC(=O)CCc1sc(NC2CCCCC2)nc1-c1ccc(OC)cc1,106.7
CC(C)(C)n1ncc2c(=O)n(CC(=O)NC3CCCCC3)cnc21,99.3

Next part, starting with the last 5 of the part before.
SMILES,VACV E9 pol inh
Nc1cc(C(F)(F)F)ccc1C(F)(F)F,101.7
Nc1cc(C(=O)O)ccc1Sc1ccccc1C(=O)O,99.9
CN1/C(=C\C(=O)COC(=O)c2ccccc2)C(C)(C)c2ccccc21,102.4
COC(=O)CCc1sc(NC2CCCCC2)nc1-c1ccc(OC)cc1,106.7
CC(C)(C)n1ncc2c(=O)n(CC(=O)NC3CCCCC3)cnc21,99.3
COc1ccc(C2(CNC(=O)c3ccco3)CCOCC2)cc1,99.5
C=CCN1C(=O)/C(=C/c2ccc3ccccc3n2)S/C1=N/S(=O)(=O)c1ccc(C)cc1,98.1
CC1CN(C(=O)c2ccc3ncsc3c2)CC(C)O1 (centres undefined),100.5
Cc1cc(C)[n+](CC(O)CCl)n1CC(O)CCl (centres undefined),95.2
Cc1ccc(CN2C(=O)/C(=C\c3ccc(C(=O)NCc4cccnc4)cc3)Oc3ccccc32)cc1,106.4
CCN(CC)c1ccc2nc(C)c(=O)oc2c1,104.6
COC(=O)/C=C/c1cnc2ccccc2c1,116.0
O=c1c2cc3c(cc2[nH]c(=S)n1CCc1ccccc1Cl)OCO3,99.3
Cc1ccc(C2=NC(C(F)(F)F)(C(F)(F)F)N=C(c3ccco3)O2)cc1,104.4
CCOc1ccc(-c2cc(OC)c3c(C)oc(C)c3c(=O)c2)cc1,100.1
COc1ccc2cc(Br)ccc2c1CCl,94.0
CCC(=O)NCCCc1nc2ccccc2[nH]1,97.8
CCOc1ccccc1C1NC(=S)NC(c2ccccc2OCC)C12C(=O)NC(=O)NC2=O (centres undefined),98.6
Cc1ccc(/C=C/C(=O)Nc2ccccc2)o1,101.1
Nc1nonc1-n1nnc(C(=O)N2CCCC2)c1-c1ccccc1,100.3
CC[n+]1c(/C=C2/C=C(C)CC(C)C2)sc2ccccc21 (centres undefined),99.8
Cc1cc2c(cc3c(=O)n(CC(=O)NCCCN4CC(C)CC(C)C4)ncn32)s1 (centres undefined),95.6
CC1CCC(C(C)C)C(OP(N)(=O)c2ccccc2)C1 (centres undefined),99.8
COc1ccc(/C=C2\SC(=N)N(c3ccc(OC)cc3)C2=O)cc1,98.9
O=C(Cn1cnc2sc3c(c2c1=O)CCCC3)NCCC(=O)N1CCN(c2ccc(F)cc2)CC1,100.1
CO/C(=C\c1cccc(O)c1)C(=O)Nc1ccc2ccccc2n1,93.4
O=c1oc2cc(OCc3ccc(C(F)(F)F)cc3)ccc2cc1-c1ccccn1,100.7
O=C(NCc1ccccc1)c1ccc(-c2nc3ccccc3s2)s1,96.7
Cn1c(Cl)cnc1C1CC(=O)c2cc(Cl)ccc2O1 (centres undefined),103.8
COC(=O)c1ccc(OCC(O)CNC(C)(C)C)cc1 (centres undefined),99.5
O=C1OC(/C=C/c2ccccc2)=NC/1=C/c1ccco1,99.5
CC1(O)CCOCC1NC(Cc1cc2ccccc2[nH]1)C(=O)O (centres undefined),100.9
N#CCCn1nnc2ccccc21,100.8
